GIRK2 activ: opens human GIRK2 potassium channels | P48051 | HEK293-GIRK2 thallium flux, Thallos fluorescence | calls only for hits at 25 µM | hit rate 0.05% among 63,000 | AID 1259325;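 active means among the strongest 0.2% of first-round signals and kept after retests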;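 further: first round at about 10 µM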
Target sequence (P48051 whole entry, looked up): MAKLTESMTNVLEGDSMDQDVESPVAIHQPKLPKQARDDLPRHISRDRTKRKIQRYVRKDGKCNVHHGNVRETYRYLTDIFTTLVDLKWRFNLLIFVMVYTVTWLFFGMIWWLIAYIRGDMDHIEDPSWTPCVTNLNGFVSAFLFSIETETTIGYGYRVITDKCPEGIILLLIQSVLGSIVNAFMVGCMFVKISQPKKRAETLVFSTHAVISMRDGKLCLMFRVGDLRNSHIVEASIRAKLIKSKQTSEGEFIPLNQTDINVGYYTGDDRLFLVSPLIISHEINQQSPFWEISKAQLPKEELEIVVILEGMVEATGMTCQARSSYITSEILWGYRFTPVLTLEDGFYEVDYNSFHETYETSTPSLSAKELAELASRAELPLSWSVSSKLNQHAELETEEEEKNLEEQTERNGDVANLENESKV
Calls only; i = inactive. Only part of the results is shown; count on the stated rates, not on these rows.

GIRK2 activ | Structure
i | COc1ccc(NC(=O)N2CCN(Cc3nnnn3-c3ccc(F)cc3)CC2)c(OC)c1
i | COc1ccc(NC(=O)CSc2nc3c(-c4ccc(C)cc4)csc3c(=O)n2C)cc1OC
i | Cc1nnsc1C(=O)NCCn1ccc(C(F)(F)F)n1
i | Cc1ccc(S(=O)(=O)N(CCc2cccs2)Cc2ccco2)cc1C
i | Cc1nc(-c2ccccc2Cl)sc1CNC(=O)c1cc(-c2cccs2)nn1C
i | COc1ccc(S(=O)(=O)N2CCCOC2CNC(=O)C(=O)NCc2cccnc2)cc1OC (stereo not given)
i | CCOC(=O)N1CCN(C(=O)Cn2nc(-c3ccccc3)cc(N)c2=O)CC1
i | Cc1ccc(S(=O)(=O)c2c(C)nn(-c3ccccc3)c2OC(=O)CCc2ccccc2)cc1
i | CCCCCn1c(=O)c2ccccc2n(Cc2nc(-c3cc(OC)cc(OC)c3)no2)c1=O
i | O=c1c(=O)n(-c2ccccc2)ccn1Cc1nc(-c2ccc(F)c(Cl)c2)no1
i | O=C(CSc1ccc(F)cc1)NCC1CCN(C(=O)Oc2ccccc2)CC1
i | CCCCC(=O)Nc1cc(C2CC2)nn1-c1nc(-c2ccccc2)cc(=O)[nH]1
i | COCCn1c(=O)c2c(nc3n2CC(C)CN3c2ccccc2OC)n(C)c1=O (stereo not given)
i | O=C(CSc1nc2ccccc2o1)Nc1nc2c(s1)COCC2
i | CCc1cc(=O)n(CC(=O)Nc2ccc(Br)cc2)c(C)n1
i | Cc1cn2c3c(=O)n(Cc4ccccc4F)c(=O)n(C)c3nc2n1CCN(C)C
i | Cc1cn2c3c(=O)n(C)c(=O)n(C)c3nc2n1CCN(C)Cc1ccccc1
i | Cc1cc(NCCN(C)C)n2ncc(-c3ccccc3)c2n1
i | Cc1noc(C)c1CN1CCN(C(=O)c2ccc3nsnc3c2)CC1
i | Cc1ccc(Nc2ccc(NCCNC(=O)COc3ccc(-n4cccn4)nn3)nn2)nc1
i | CCOc1ccccc1Oc1coc2cc(OCC(=O)c3ccc(OC)cc3)ccc2c1=O
i | COc1ccccc1NC(=O)NCCC(O)c1ccoc1 (stereo not given)
i | N#CC(C#N)=C(N)/C(C#N)=C/c1ccc2[nH]ccc2c1
i | Cn1nc(C2CCN(S(=O)(=O)C3CC3)CC2)n(-c2ccccc2)c1=O
i | O=C(CSc1nnc(N2CCN(C(=O)c3ccc([N+](=O)[O-])o3)CC2)s1)Nc1ccccc1
i | COc1ccc(NC(=O)CSc2cc(-n3nc(C)cc3C)ncn2)cc1Cl
i | O=c1c2ccccc2oc2nc(C3CCCCC3)n(CCc3ccccc3)c(=O)c12
i | O=C(Nc1ccccc1NC(=O)C1CCC1)c1cccc(Cl)c1
i | Cc1cccc(CS(=O)(=O)NCc2sc(-c3ccccc3Cl)nc2C)c1
i | Cc1cc(C(=O)NCC(Cc2cccc(F)c2)N2CCNC2=O)c(C)o1 (stereo not given)

Ordered by molecular weight (largest number first): some entries from above.
GIRK2 activ | Structure
i | CCOc1ccccc1Oc1coc2cc(OCC(=O)c3ccc(OC)cc3)ccc2c1=O
i | Cc1nc(-c2ccccc2Cl)sc1CNC(=O)c1cc(-c2cccs2)nn1C
i | CCCCC(=O)Nc1cc(C2CC2)nn1-c1nc(-c2ccccc2)cc(=O)[nH]1
i | Cc1noc(C)c1CN1CCN(C(=O)c2ccc3nsnc3c2)CC1
i | CCc1cc(=O)n(CC(=O)Nc2ccc(Br)cc2)c(C)n1
i | Cc1nnsc1C(=O)NCCn1ccc(C(F)(F)F)n1
i | COc1ccccc1NC(=O)NCCC(O)c1ccoc1 (stereo not given)

Following part.
GIRK2 activ | Structure
i | CC(=O)Nc1cccc(C#Cc2cncnc2Nc2ccc(OCc3cccc(F)c3)c(Cl)c2)n1
i | COc1ccc(CSc2ncccc2-c2nc(-c3cccs3)no2)cc1F
i | Cc1c(C(=O)Nc2ccc3oc(=O)ccc3c2)nnn1-c1ccccc1
i | COc1cc(-c2c(NC(=O)c3ccco3)oc3ccccc3c2=O)cc(OC)c1OC
i | CN1CC(NC(=O)c2ccc(C(F)(F)F)cc2)CC1=O (stereo not given)
i | COc1ccc(OC)c(-c2cc(C(=O)NCCC(O)c3cc(C)oc3C)n(C)n2)c1 (stereo not given)
i | O=C(NCc1cc(-c2ccncc2)n(C2CCCC2)n1)c1cccc(C(F)(F)F)c1
i | CN1CCC(N(C)C(=O)c2csc(-c3cnccn3)n2)CC1
i | CCCc1cnc2c(c1SCC(=O)c1ccccc1)c(=O)n(C)c(=O)n2C
i | COc1ccc(-c2ccc(=O)n(CCNS(=O)(=O)c3ccc(OC)cc3)n2)cc1
i | CCn1c(-c2nonc2N)nc2c(C#CC(C)(C)O)nc(OC[C@H](N)c3ccccc3)cc21
i | O=C(NCCc1ccncc1)c1cc(C2CC2)on1
i | O=C(NCCn1ncc2c(NCc3ccc(F)cc3)ncnc21)c1ccccc1C(F)(F)F
i | O=C(CCCn1cccc1)NCc1ccc2c(c1)OCO2
i | CCCc1ccc(C(=O)NCC2(c3cccs3)CCOCC2)cc1
i | COc1ccc(CNC(=O)Cn2cnc3c(-c4ccc(OC)cc4)csc3c2=O)cc1
i | CCOCCn1c(=O)c2c(nc3n(-c4cc(C)cc(C)c4)c(-c4ccccc4)cn23)n(C)c1=O
i | COc1ccc(Cl)cc1C(=O)N1CCC(Cn2c(C)nc3ccccc32)CC1
i | Cn1cc(-c2nc(-c3cccnc3)no2)c(=O)c2cc(F)c(N3CCOCC3)cc21
i | O=C(c1csc(Nc2ncccn2)n1)N1CCN(c2cccc(Cl)c2Cl)CC1
i | O=C(NCCCn1ccnc1-c1ccccc1)c1ccc(F)c(F)c1
i | CCN1CC(c2nc3ccccc3n2Cc2ccccc2)CC1=O (stereo not given)
i | O=C(Nc1nccs1)C1CCN(C(=O)c2nc3ccccc3s2)CC1
i | O=c1cc(CN2CCN(c3ccccc3)CC2)c2cc(Cl)c(O)cc2o1
i | O=S(=O)(c1c(F)cccc1F)N1CC(c2nc(C3CC3)no2)C1
i | CCCCN(C(=O)c1cn(C)nc1C)c1ccccc1
i | COC1(CNC(=O)C2CC=CCC2)CCSC1 (stereo not given)
i | O=C(Nc1cccc(C(F)(F)F)c1)C1CCN(c2ccc(-n3cccn3)nn2)CC1
i | COC(=O)NCC1CCN(c2ccccn2)CC1
i | Brc1ccc2c(c1)C=C(c1nnc(-c3cccnc3)o1)C=CO2
i | Cc1nnsc1C(=O)NCCCN1CCN(c2ccccc2)CC1
i | Cc1ccc(NC(=O)Cn2nc3ccc(SC4CCCCC4)nn3c2=O)cc1C
i | COc1cccc(N2CCCn3c2nc2c3c(=O)[nH]c(=O)n2C)c1
i | COc1cc(/C=C2\Oc3c(ccc4c3CN(CC3CCCO3)CO4)C2=O)cc(OC)c1OC (stereo not given)
i | CS(=O)(=O)c1ccc(C(=O)N(CCN2CCOCC2)c2nc3ccc(F)cc3s2)cc1
i | COc1ccc(-c2c(-c3ccc(OCCN4CC(C)OC(C)C4)cc3O)n[nH]c2C)cc1OC (stereo not given)
i | COc1ccc(-n2ncc3c(=O)n(Cc4nc(-c5ccc(C(C)(C)C)cc5)no4)cnc32)cc1
i | COc1ccccc1-n1ncc2c(C(C)C)nnc(SCC(N)=O)c21
i | Cc1csc(C(=O)N2CCC(C(=O)NCc3nc(C)no3)CC2)c1
i | O=C(CN1CCN(C(=O)/C=C/c2ccc3c(c2)OCO3)CC1)c1ccco1
i | Cc1cc2oc(=O)cc(CN3CCC(C(N)=O)CC3)c2cc1C
i | COc1ccc(S(=O)(=O)N2CCCOC2CNC(=O)C(=O)NC(C)C)cc1C (stereo not given)
i | CC(C)(C)C(=O)NCC#CCOc1cccc(C(F)(F)F)c1
i | Cc1ccc(C)c2sc(OC3CCN(C(=O)Cn4c(=O)oc5ccccc54)CC3)nc12
i | O=C(NCc1ccccc1Cl)c1cn(-c2cc(N3CCCC3)ncn2)cn1
i | COc1ccc(CCNC(=O)CSc2nc3c(-c4ccccc4)csc3c(=O)n2C)cc1OC
i | COc1ccc(-n2c(=O)c3sccc3n(Cc3nc(-c4cccc(OC)c4)no3)c2=O)cc1
i | O=C(Nc1nc2ccccc2s1)c1ccc2nccnc2c1
i | O=C(NCC1(c2ccc(F)cc2)CC1)C(=O)NC1CC1
i | COc1ccc(NC(=O)Cn2nc3c(-c4nc(-c5ccccc5)no4)cccn3c2=O)cc1
i | CCC(C)NC(=O)c1csc(Nc2ccc(S(C)(=O)=O)cc2)n1 (stereo not given)
i | CC(=O)Cn1c(=O)c2c(nc3n(-c4ccc(C)cc4)c(-c4ccccc4)cn23)n(C)c1=O
i | Cc1ccc(NS(=O)(=O)N2CCCCCC2)cc1Cl
i | CCOC(=O)c1oc2cc(OC(=O)c3ccco3)ccc2c(=O)c1-c1ccc2c(c1)OCCO2
i | Cc1ccnc(NC(=O)c2cnn3c2OCCC3)c1
i | CCOc1ccc(-n2nnnc2CN2CCN(C(=O)Nc3ccc(F)cc3)CC2)cc1
i | CC1=CC(=C2C(=O)NC(=S)NC2=O)C=C(C)N1c1cccnc1
i | COc1ccc(NC(=O)NCC2CCN(Cc3cccs3)CC2)c(OC)c1
i | COc1cccc(N2CCCn3c2nc2c3c(=O)n(CCCc3ccccc3)c(=O)n2C)c1
i | COC(=O)c1ccccc1NC(=O)CSc1ncnc2nc(N3CCc4ccccc4C3)sc12

The results go on:
GIRK2 activ | Structure
i | O=C(Cc1ccccc1)Nc1nc(-c2ccccc2)ns1
i | CN1C(=O)CCc2cc(NC(=O)/C=C/c3ccccc3Cl)ccc21
i | Cc1ccc(NC(=O)Cn2cnc3c2c(=O)n(C)c(=O)n3C)cc1C
i | CCOC(=O)N1CCN(C(=O)CN2CCC(c3nnc(C(F)(F)F)o3)CC2)CC1
i | COCCNC(=O)c1c(N)n(/N=C\c2ccc(OC)c(OC)c2)c2nc3ccccc3nc12
i | Cc1cn2nnc(C(=O)Nc3cccc(C#N)c3)c2c(=O)[nH]1
i | O=C(Nc1cc(N2CCCC2)ncn1)c1ccc2nsnc2c1
i | COc1cccc(C(=O)Nc2cc(N3CCCC3)ncn2)c1
i | Cc1noc(-c2ccc(N3CCCC(C(=O)NC(C)CCc4ccco4)C3)nc2)n1 (stereo not given)
i | O=C1CC(c2cccs2)CC(=O)N1CC(=O)N1CCc2ccccc21
i | COc1cc(NC(=O)CSc2nccc(-c3ccc(C)c(C)c3)n2)cc(OC)c1
i | Cc1ccc(NC(=O)Cn2c(C)nc3c(c2=O)CN(Cc2ccccc2)CC3)cc1C
i | CCN(CC)c1nc2nc(SCC(=O)Nc3ccc(Cl)cc3F)n(C(C)C)c(=O)c2s1
i | Oc1cc(O)c2c(c1)O[C@H](c1ccc(O)c(O)c1)[C@@H](O)C2
i | O=C(NCC1COC2(CCCCC2)O1)Nc1cccs1 (stereo not given)
i | Cc1nc(SCC(=O)Nc2ccc(C(F)(F)F)cc2)cc(-c2ccccn2)n1
i | COc1ccc(N2CC(C)Cn3c2nc2c3c(=O)n(CCCc3ccccc3)c(=O)n2C)cc1 (stereo not given)
i | Cc1ccc(-n2c(-c3ccccc3)cn3c4c(=O)n(CCN5CCOCC5)c(=O)n(C)c4nc23)cc1
i | Cc1cc(OCC(=O)NCc2ccccc2)nc(N2CCCCCC2)n1
i | COc1ccc(N2CC(c3nc4ccccc4n3Cc3cccc(Cl)c3)CC2=O)cc1 (stereo not given)
i | Cc1ccc(NC(=O)c2cc(=O)c(OCc3ccccc3)c[nH]2)cc1C
i | CC(C)c1ccc(NC(=O)C(=O)NCC2CCN(S(=O)(=O)c3cccnc3)CC2)cc1
i | CSc1cccc(NC(=O)Cn2cnc3c(oc4ccccc43)c2=O)c1
i | O=C(Nc1cccc(OC(F)F)c1)c1ccc2nsnc2c1
i | O=C(c1cc(-c2ccco2)on1)N1CCN(C(=O)C2CC2c2cccs2)CC1 (stereo not given)
i | CCN(CC)c1nc2c(c(=O)[nH]c(=O)n2C)n1CCOc1ccccc1
i | COc1cccc(COc2cn(C)c(C(=O)Nc3ccc(C(C)C)cc3)cc2=O)c1
i | COC(=O)c1ccccc1NC(=O)c1nnn(-c2cccc(Cl)c2)c1C
i | C=CCNC(=O)c1cc(-c2ccc(Cl)cc2)oc1C
i | O=C(Nc1ccc2c(c1)OCCO2)c1cnn2c(-c3ccncc3)ccnc12

Some of the entries above in a different format.
SMILES	GIRK2 activ
Cc1ccc(NC(=O)c2cc(=O)c(OCc3ccccc3)c[nH]2)cc1C	i
CC(C)c1ccc(NC(=O)C(=O)NCC2CCN(S(=O)(=O)c3cccnc3)CC2)cc1	i
CSc1cccc(NC(=O)Cn2cnc3c(oc4ccccc43)c2=O)c1	i

Another view of 2 compounds above.
Structure: O=C(Cc1ccccc1)Nc1nc(-c2ccccc2)ns1
- GIRK2 activ: i
Structure: CN1C(=O)CCc2cc(NC(=O)/C=C/c3ccccc3Cl)ccc21
- GIRK2 activ: i

The list goes on.
GIRK2 activ | Structure
i | CCCc1oc(-c2ccccc2)cc1C(=O)NCC1CCCO1 (stereo not given)
i | Cc1ccc(CNC(=O)c2c(C)c3c(=O)n(CC(=O)Nc4c(C)cc(C)cc4C)ncn3c2C)cc1
i | COc1ccc(/C=C2\Oc3cc(OC(C)C(=O)O)ccc3C2=O)cc1 (stereo not given)
i | Cc1ccccc1-n1nnc(C(=O)Nc2ccc(Cl)cc2Cl)c1N
i | CC(C)(C)c1ccc(C(=O)CSc2nnc3ccccn23)cc1
i | CN(C)S(=O)(=O)c1ccc(-c2nc(C#N)c(NCc3ccccc3)o2)cc1
i | COc1ccc(-c2nnc(NC(=O)c3ccccc3Oc3ccccc3)o2)cc1
i | CCOCC(=O)N1CCN(Cc2nnnn2-c2ccc(C)cc2)CC1
i | O=C(N(Cc1ccsc1)Cc1ccco1)C1(c2ccccc2)CCOCC1
i | O=C(Oc1ccccc1)c1cccnc1-c1nc2ccccc2s1
i | C/C=C/c1ccc(OCC(O)CN2CCN(c3ccccc3)CC2)c(OC)c1 (stereo not given)

Screens: PubChem, Vanderbilt University
